NPYLR7 ag: agonists of mosquito NPYLR7 receptor, primary screen, cell-based, Aedes aegypti, calcium fluorescence, mosquito biting behavior; Aedes aegypti neuropeptide Y-like receptor 7 (NPYLR7); HEK293T NPYLR7/Galpha15, GCaMP6s calcium fluorescence; activation, % at 10 µM; 0.15% of 270,000 active; in the data active = activation above about 40%;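 note: 0% = vehicle and 100% = reference agonist at the receptor; some compounds past the cut are filed as inactive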
NPYLR7 ag max-min: further read-out of NPYLR7 ag, marked with its call; activation, %; measured here: Max-Min RFU normalised activation; some inactives read as strong as hits;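 span of the calcium signal over five minutes; 0% = vehicle and 100% = native peptide agonist; compound fluorescence can raise it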
Active calls of the source: *.

molecule,NPYLR7 ag,NPYLR7 ag max-min
COc1ccc(C(NC(=O)C2CCN(CCc3ccccc3)CC2)c2ccccn2)cc1 (stereo not given),25,16
CCCCOc1ccc(S(=O)(=O)N2CCC(c3cn(Cc4cccc(F)c4)c4ccccc34)CC2)cc1,21,9
CCC(C)NCCCCOc1cc(C)cc(C(C)C)c1 (stereo not given),-8,-17
CCc1nc2c(OCC3CCCCC3)cccn2c1N(C)C(=O)c1cccc(OC)c1,15,3
Cc1nc(-c2ccccc2)sc1C(=O)N1CCN(c2cc(-n3ccnc3)ncn2)CC1,-17,-20
O=C(COc1ccccc1)NC(=S)Nc1cccc([N+](=O)[O-])c1,0,0
COc1ccc(-c2[nH]ncc2CN2CCN(Cc3csc(C)n3)CC2)c(F)c1,13,5
CCOc1nc2c(c(=O)n(C)c(=O)n2C)n1C,4,3
COc1ccc(-n2c(-c3ccccc3)cc(C(=O)N3CCC4(CC3)OCCO4)c2C)c(OC)c1,-10,-14
CC(C)NC(=O)CN1CCN(Cc2nc(Cc3cccc(F)c3)no2)CC1,-4,-9
CC(NCc1ccc(N(C)CCC#N)cc1)C1CC2CCC1C2 (stereo not given),21,22
CSc1ccc(-c2nccn2CCCn2ccnc2)cc1,0,-5
Nc1[nH]c(=O)[nH]c(=O)c1N=Nc1ccc2c(c1)OCCO2,-14,-20
CO[C@H]1C(=O)N(C)C2(CCN(C(=O)c3ccccc3)CC2)[C@@H]1C(=O)Nc1ccccc1,23,30
O=C(Nc1ccc(C(F)(F)F)cc1)N1CC(=O)N2CCc3c(F)cccc3C2C1 (stereo not given),15,1
CSc1ccccc1C(=O)N1CCc2c(c(C(=O)N(C)Cc3cscn3)nn2CC2CC2)C1,12,-4
CC(=O)c1ccc(NC(=O)c2cc3ccccc3oc2=O)cc1,3,-3
CCCCN(CC(=O)N1c2ccccc2-n2cccc2C1c1cc(OC)ccc1OC)C(=O)C1CCC1 (stereo not given),2,10
Cc1ccc(Nc2nc(N3CCN(c4ccc(F)cc4)CC3)nc3nccnc23)cc1,4,10
CCOc1ccc(N2CCn3c2nc2c3c(=O)n(CCOC)c(=O)n2C)cc1,1,-1
CCn1c(SCCC(N)=O)nnc1-c1ccco1,2,-2
O=C(NCCCS(=O)(=O)N1CCN(c2ccc(F)cc2)CC1)c1ccc(=O)[nH]c1,-1,-2
CCC(=O)Nc1c(-c2cccc(F)c2)nc2cc(C)ccn12,-17,-10
O=C(c1cccc(F)c1F)N1CCN(Cc2ccc(-c3noc(-c4ccccc4)n3)cc2)CC1,5,6
CCCCS(=O)(=O)NCCNc1ccc(Nc2cc(C)ccn2)nn1,6,4
O=C(NCC1CCCO1)c1ccc(-c2ccc(C3CCCCC3)cc2)s1 (stereo not given),26,29
O=c1c2cc(Cl)ccc2ncn1CC(O)COc1cc(Cl)ccc1Cl (stereo not given),7,11
Cc1ccc(OC2(C(=O)N3C[C@H]4CC=CC[C@H]4C3)CCNCC2)cc1,0,-4
O=c1[nH]c(SCC2OCCc3ccccc32)nc2[nH]ncc12 (stereo not given),1,-2
c1cc(Oc2ccc3c(C4CC4)noc3n2)cc(N2CCOCC2)c1,3,-2
COCCn1cnc2cc(NC(=O)C3CCCCC3)cc(C(=O)NC3CCc4ccccc43)c21 (stereo not given),11,5
O=C(c1[nH]ncc1Cl)N1CCCC(c2[nH]ncc2Cc2ccccc2)C1 (stereo not given),1,1
CCc1ccc2nc(NCCCN(C)C)sc2c1,-5,-5
CC(C)CNC(=O)c1c(O)nc2sccn2c1=O,-1,19
COc1cc2c(cc1OC)CN(S(=O)(=O)c1ccc(OC)c(N3CCN(S(=O)(=O)c4ccccc4C(F)(F)F)CC3)c1)CC2,14,7
Cc1cc(C)c(C(=O)NCC2CCN(CC(C)C)C2)c(=O)[nH]1 (stereo not given),2,1
CCCn1c(=O)c2c(nc3n2CC(C)CN3c2ccc(OC)cc2)n(C)c1=O (stereo not given),11,3
CC1CN(C(=O)NCCc2coc(-c3ccccc3)n2)CCO1 (stereo not given),-2,-2
O=C(NCCn1ncc2c(N3CCCCC3)ncnc21)C1CC1,1,-2
C=CCn1c(COc2ccc(F)cc2)nnc1SCC(=O)Nc1cc(C)on1,20,8
O=C(NN1CCCCC1=O)c1ccccc1Cl,10,8
CCOC(=O)C(CC)Sc1nc2c(cnn2CCO)c(=O)[nH]1 (stereo not given),-1,-4
COC[C@H]1C[C@H]2C[C@H](O)[C@@H](NC(=O)Nc3ccccc3F)[C@@]2(O)CO1,-2,-8
Cc1c(O)cc(C(=O)NCc2cccnc2Oc2ccccc2F)cc1O,7,6
Cc1cc(-c2nnc(NC(=O)Cc3ccc(F)cc3)o2)n(C)n1,-5,0
CNCC(=O)N(C)Cc1cc2cc(F)ccc2[nH]1,25,14
Brc1ccc(C2CN(c3ncnc4nc[nH]c34)CCO2)cc1 (stereo not given),8,5
CC(c1ccccc1)n1c(SCC(=O)O)nnc1-c1cnccn1 (stereo not given),4,3
CN1CCN(c2onc(-c3ccccc3)c2CNCc2ccccc2F)CC1,34,27
COc1cccc(NC(=O)c2ccc(C(F)(F)F)nc2)c1,-1,-1
Cc1[nH]c(=O)n(C)c(=O)c1CCc1nnc(SCC(=O)N2CCc3ccccc32)o1,-8,-13
O=C(Cc1ccccc1)NCCn1nc(-c2cccs2)ccc1=O,-1,-2
COc1cccc(C2c3cc(OC)c(OC)c(OC)c3CCN2C(=O)C(F)(F)F)c1 (stereo not given),-4,-6
NC(=Nc1ccccc1)NC(=O)c1nc(Cl)c(N)nc1N,3,-38
CNC(=O)[C@@H]1C[C@H](N)CN1C1CSCCSC1,-4,-11
NS(=O)(=O)c1ccc(NC(=O)c2c3c(nn2C2CCS(=O)(=O)C2)CCC3)cc1 (stereo not given),25,17
CC(C)C(NC(=O)CNC(=O)c1ccc(Br)o1)c1nnc2n1CCC2 (stereo not given),1,-2
O=C(Nc1ccc(NC2CCCCC2)cc1)c1cnsn1,0,0
CCN(CCCCCCN)c1cccc2c(=O)[nH][nH]c(=O)c12,5,6
CCC1CSC(=NCCSc2ccc(Cl)cc2)N1 (stereo not given),-8,-11

One compound at a time, as listed above. Order of screens: NPYLR7 ag | NPYLR7 ag max-min
CN1CCN(c2onc(-c3ccccc3)c2CNCc2ccccc2F)CC1 across the screens: 34 | 27
Brc1ccc(C2CN(c3ncnc4nc[nH]c34)CCO2)cc1 (stereo not given) across the screens: 8 | 5

Other compounds follow:
molecule,NPYLR7 ag,NPYLR7 ag max-min
COc1ccc(-n2nnnc2SCc2nc(-c3ccc(C)c(F)c3)no2)cc1,1,4
CN(C)c1ccc(-n2cccc2/C=C/[N+](=O)[O-])cc1,-2,14
CC(Nc1ncnc2sccc12)c1ccc(-n2cncn2)cc1 (stereo not given),13,4
CCn1cc(C(=O)N2CCN(CC(=O)c3ccc(OC)cc3)CC2)c2nn(-c3ccccc3)c(=O)c-2c1,-3,-7
Cc1cc(C)n(-c2ccc(-n3cnnc3)cc2)n1,3,-2
CSCCOC(=O)C1=C(C)NC(=O)NC1c1cccc(Cl)c1 (stereo not given),-3,-6
c1ccc(CNc2nc3ccccc3c3nncn23)cc1,-2,-5
C=CCN(C)C(=O)[C@@H](C)C1CC[C@@]2(C)Cc3sc(Nc4cc(OC)ccc4OC)nc3[C@@H](C)[C@@H]2[C@H]1O (stereo not given in full),-3,-8
Cc1ccc(C(C)C)cc1OC(C)C(=O)NCc1ccc(C(=O)N2CCCC2)cc1 (stereo not given),0,11
Cc1ccccc1CC(C1CCN(C(=O)c2ccc3ccccc3c2)CC1)N(C)C(=O)C1CCC1 (stereo not given),-2,-8
Cc1c(C)c2n(C)c3ccccc3n2c1C(=O)NC(=O)c1ccccc1,0,-1
CC(C(=O)N1CCOCC1)S(=O)(=O)c1nnc(C2CC2)n1C (stereo not given),-1,12
COC(=O)C(c1ccc(F)cc1Cl)C1C=CC(NC(=O)Cc2cc(OC)ccc2OC)C1 (stereo not given),2,-2
O=C(CSC1=Nc2ccccc2C2CC=NN12)Nc1ccc2ccccc2c1 (stereo not given),0,-6
N#CCCN(C(=O)c1coc2c1C(=O)CCC2)C1CC1,9,3
Cc1ccsc1CN(C(=O)c1onc2ccccc12)C1CC1,14,2
CC(Cn1ccnc1)NC(=O)c1ccccc1N(C)C(=O)c1cccs1 (stereo not given),5,2
COCCN(Cc1ccc(F)cc1F)CC(O)COCC(C)C (stereo not given),15,9
CCN(CC(=O)Nc1ccc2c(c1)OCCO2)C(=O)Cn1c(C)csc1=O,-3,-4
COc1ccc(NC(=O)c2cnn3c(C(F)(F)F)cc(-c4ccc(C)cc4)nc23)cc1OC,1,3
CC(C)CN(Cc1cccc(O)c1)Cc1cnn(C)c1,6,2
CCS(=O)(=O)c1cccc(C(=O)N(Cc2ccccn2)c2nc3c(F)cc(F)cc3s2)c1,-3,-5
C=CCN(Cc1cccn1Cc1ccc(C(C)(C)C)cc1)CC(O)COC(=O)CCC (stereo not given),2,8
CC(C)(C)C(=O)NCc1ccc(C(=O)CN2C(=O)NC3(CCCC3)C2=O)s1,4,1
COCCN1C(=O)CC2(C1=O)C(=O)N(CCCCOc1ccccc1)c1ccc(F)cc12 (stereo not given),-7,-11
COCCNC(=O)C1(C)CCCN(Cc2c(C)nn(-c3ccccc3)c2C)C1 (stereo not given),2,3
CCC(C)NC(=O)c1noc(C(C)C)c1[N+](=O)[O-] (stereo not given),7,6
CC(C)C(C)(C#N)NC(=O)COc1cc(Cl)ccc1Cl (stereo not given),5,2
O=C(O)c1ncoc1CCC(F)(F)F,-1,-2
N#Cc1ccc(OCC(=O)N(Cc2c(F)cccc2Cl)C2CC2)cc1,5,2
CN(CC1CCN(CCc2ccc(F)cc2)CC1)C(=O)c1ccc(-c2ccccc2)[nH]c1=O,-3,-7
COCCN(CC(=O)N(CCc1c[nH]c2ccccc12)Cc1ccccc1)C(=O)Nc1cc(C(F)(F)F)cc(C(F)(F)F)c1,16,17
C=c1onc(-c2ccccc2Cl)c1=C1N=C(c2ccc(Cl)cc2)NO1,4,3
CN(C(=O)c1ccccc1)c1nnc(C23CC4CC(CC(C4)C2)C3)s1,-4,-5
COc1ccc(S(=O)(=O)NCCOc2ccc(-c3ccccc3)nn2)cc1,-1,-10
CCCN1Cc2ccccc2N(CC)CCC1=O,4,9
CCC(C)NS(=O)(=O)c1ccc2c(c1)CCC(=O)N2 (stereo not given),2,-1
COc1ccc2c(c1OC)C(=O)N1c3ccccc3C(=O)OC21 (stereo not given),3,0
CCOc1ccc(C2C(C(=O)OC(C)C)=C(C)NC3=C2C(=O)CC(c2ccccc2)C3)cc1 (stereo not given),1,-1
CN(C)CCN(Cc1ccccc1F)C(=O)NCCc1cccs1,1,-13
Cc1cccn2c(=O)c3cc(C(=O)N4CCCC4)sc3nc12,8,-1
CSCC(=O)N1CCCC(C(=O)Nc2ccc(-c3cccc(F)c3)cc2)C1 (stereo not given),4,1
CC1=NN(c2nc(C)cc(C)n2)C(=O)C1Cc1ccccc1Cl (stereo not given),0,-2
COc1ncccc1-c1cnn(Cc2ccccc2)c1,-1,-8
O=[N+]([O-])c1ccc2nc(NS(=O)(=O)c3ccc(Cl)c(C(F)(F)F)c3)sc2c1,20,23
O=C(c1ccccc1)C1CCCCC1S(=O)(=O)O (stereo not given),-1,2
Cc1cc(CN2CCCC(CCc3ccccc3F)C2)n[nH]1 (stereo not given),3,-1

Gathered by group: those above with a Cl atom
molecule,NPYLR7 ag,NPYLR7 ag max-min
O=c1c2cc(Cl)ccc2ncn1CC(O)COc1cc(Cl)ccc1Cl (stereo not given),7,11
O=C(c1[nH]ncc1Cl)N1CCCC(c2[nH]ncc2Cc2ccccc2)C1 (stereo not given),1,1
O=C(NN1CCCCC1=O)c1ccccc1Cl,10,8
NC(=Nc1ccccc1)NC(=O)c1nc(Cl)c(N)nc1N,3,-38
CCC1CSC(=NCCSc2ccc(Cl)cc2)N1 (stereo not given),-8,-11
CSCCOC(=O)C1=C(C)NC(=O)NC1c1cccc(Cl)c1 (stereo not given),-3,-6
COC(=O)C(c1ccc(F)cc1Cl)C1C=CC(NC(=O)Cc2cc(OC)ccc2OC)C1 (stereo not given),2,-2
CC(C)C(C)(C#N)NC(=O)COc1cc(Cl)ccc1Cl (stereo not given),5,2
N#Cc1ccc(OCC(=O)N(Cc2c(F)cccc2Cl)C2CC2)cc1,5,2
C=c1onc(-c2ccccc2Cl)c1=C1N=C(c2ccc(Cl)cc2)NO1,4,3
CC1=NN(c2nc(C)cc(C)n2)C(=O)C1Cc1ccccc1Cl (stereo not given),0,-2
O=[N+]([O-])c1ccc2nc(NS(=O)(=O)c3ccc(Cl)c(C(F)(F)F)c3)sc2c1,20,23

Screening data: PubChem, Fisher Drug Discovery Resource Center

A portion of the library (hit frequency here may not be typical).
